ugtP null kill – growth inhibition of S. aureus ugtP deletion strain | S. aureus RN4220 ugtP deletion, OD600 growth, 16 h; some inactives read as strong as hits | growth inhibition, % (test concentration not listed) | 330,000 tested, 0.54% active;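 active = z-score under -3 and OD600 up to 0.15 on both plates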;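 note: plate controls were untreated wells for no effect and antibiotic for full effect; wells of about 80 µL received 100 nL stock; the first replicate is given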
BJeLR viability – BJeLR cell viability loss; AID 1554; BJeLR (HRASV12) viability, CellTiter-Glo ATP luminescence, 48 h; reference of the scale not given here; 300,000 tested, 0.17% active; inhibition, % (no concentration beside the values);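 active = replicate mean above 50%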;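 note: 50 nL library stock added to about 25 µL; numbers are from one replicate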
PrP UTR inh – suppresses PrP 5' UTR mRNA reporter expression. cell-based PrP 5' UTR mRNA reporter, plate reader. inhibition, % (no concentration beside the values). 340,000 tested, 0.35% active. AID 488862;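 active = every replicate at 50% or more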;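 note: 0 = median of the neutral control wells; tested in H4 reporter cells; numbers are from one replicate; inactives centre near -14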
Bead autofluor – compound fluorescence in toxin protease inhibitor counterscreen; fluorescence intensity (test concentration not listed); compound autofluorescence counterscreen, microsphere flow cytometry; active compounds read high; 360,000 tested, 3.1% active;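 active = at least 3 SD above the mean of all compounds, about 16000 in these data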;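 note: 100 nL of 1 mM stock went into each well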
Mtb hypoxia rep – reduces hypoxia-regulated biosensor signal in M. tuberculosis; M. tuberculosis hypoxia-regulated fluorescent reporter, fluorescence; fluorescence inhibition, % (no concentration beside the values); 300,000 tested, 0.1% active; AID 1159583;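 active = 35 to 45% if threefold the growth effect, above 45% if 1.5-fold the growth effect; inactive = the rest, general growth blockers included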;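 note: wells of about 50 µL received 100 nL stock; 0% = vehicle wells and 100% = reference inhibitor wells; whole bacteria with a GFP reporter of the hypoxia response; strong numbers were not always called active; many hits fall short of the cut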
RN4220 kill – kills Staphylococcus aureus RN4220 | S. aureus RN4220 growth, OD600, 16 h | inhibition, % (no concentration beside the values) | 330,000 tested, 0.33% active | AID 1259311;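 active = z-score of -3 or lower and OD600 up to 0.18 on both plates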;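 note: plate controls were untreated cells for no effect and reference antibiotic for full effect; stock transfer was 100 nL into about 80 µL; one replicate is shown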
Mtb hypoxia rep growth – further read-out of Mtb hypoxia rep, marked with its call; growth inhibition, %; measured here: M. tuberculosis growth (absorbance);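 0% = vehicle and 100% = reference antibiotic; read after six days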
* hit, by the source's call; · = no result given.

Each structure is followed by: ugtP null kill | BJeLR viability | Bead autofluor | PrP UTR inh | RN4220 kill | Mtb hypoxia rep | Mtb hypoxia rep growth
1: COc1ccc(NS(=O)(=O)c2ccc(C(=O)N3CCN(Cc4ccccc4)CC3)cc2)cc1
    -1 | 5 | 4489 | -13 | 4.2 | 10 | 7
2: O=C(NNC(=O)c1ccccc1F)c1cccs1
    3 | 0 | 5824 | -4 | 2.1 | 0 | 7
3: Cc1ccc(C(=O)N2CCCC(Nc3cccc(F)c3)C2)cc1N1CCNC1=O (stereo not drawn)
    6 | 1 | 4165 | -12 | 2.1 | 9 | 0
4: CC(=O)Nc1ccc(NC(=O)CSc2nc3c([nH]c4ccccc43)c(=O)n2-c2ccccc2F)cc1
    -9 | 1 | 6186 | 0 | 8.9 | 3 | -4
5: COc1cccc(/C=C2\SC(=S)N(CCCC(=O)NC3=NCCS3)C2=O)c1
    3 | 25 | 5824 | -7 | -0.5 | 3 | 0
6: Cc1cccc(-n2c(=S)[nH]c3sc4c(c3c2=O)CCc2ccccc2-4)c1
    -24 | 0 | 3402 | -21 | 11 | 9 | -1
7: Cc1ccc(S(=O)(=O)N2C(c3cccc(C)c3)CC=C(C(=O)O)C2c2ccccc2F)cc1 (stereo not drawn)
    11 | · | · | · | 10 | -5 | 2
8: COc1ccccc1N1CCN(N=Cc2cc(OC)c(OC(C)=O)c(OC)c2)CC1
    0 | · | · | · | 0.0 | 4 | -4
9: CCOC(=O)C1=CN(Cc2cccc(F)c2)S(=O)(=O)N(C)C1CCc1ccccc1 (stereo not drawn)
    10 | · | 2963 | -31 | -4.9 | 6 | -4
10: COc1ccc(C(=O)N2CCC(O)(c3ccc(Cl)cc3)CC2)cc1OC
    -2 | 7 | 4078 | -2 | -3.5 | -3 | -4
11: CN1CCN(C(CNC(=O)C(=O)NC2CCCCC2)c2ccc(F)cc2)CC1 (stereo not drawn)
    4 | 1 | 6322 | -27 | 1.9 | 5 | 1
12: Nc1nc(Nc2cccc(F)c2)nc(NCc2ccco2)c1[N+](=O)[O-]
    -24 | 0 | · | -44 | -4.6 | 2 | 4
13: O=C(CSCc1ccccc1)N1CCc2ccccc21
    3 | 3 | 3700 | -80 | 9.8 | -11 | -8
14: Cc1nc(-c2ccccc2)cs1
    0 | -16 | 21622* | -13 | 7.7 | -1 | 6
15: Cc1ccc(CNC(=O)CCS(=O)(=O)c2cc(Br)cc3c2N(C(=O)C2CC2)CC3)o1
    9 | 10 | 4750 | -15 | -1.7 | · | ·
16: CC1=CC(=NNS(=O)(=O)c2ccc([N+](=O)[O-])cc2)CC(C)(C)C1
    3 | · | 3701 | -9 | 9.7 | 10 | 13
17: CCOc1ccccc1-n1c(SCC(=O)NC(C)(C)C)nnc1-c1ccoc1C
    2 | -3 | 4177 | 0 | 0.1 | -10 | 5
18: O=C(Nc1cccc(O)c1)C1CC(c2cccc(Br)c2)=NO1 (stereo not drawn)
    11 | -1 | 4350 | -30 | 0.3 | 11 | 6
19: O=C(COC(=O)c1cccs1)Nc1ccccc1[N+](=O)[O-]
    13 | -8 | 4955 | -22 | 5.7 | 11 | 9
20: COc1cc(C=CC(=O)OCC2OC(OC3(CO)OC(CO)C(O)C3O)C(O)C(O)C2O)ccc1O (stereo not drawn)
    -3 | · | · | · | 2.1 | 2 | 2
21: CCc1cc(C(=O)NNC(=O)CCl)sc1C
    6 | -6 | 3963 | -5 | -0.8 | 24 | 27
22: COc1ccc(C(=O)NN=Cc2sc3ccccc3c2O)cc1
    3 | · | · | · | 13 | -5 | -8
23: CCn1cc(/C=N\NC(=O)C2(C)CC2(Cl)Cl)c(C)n1 (stereo not drawn)
    · | 1 | 10495 | -23 | · | · | ·
24: CCCOC(=O)CSc1nc(N2CCOCC2)c2c(c1C#N)CC(C)(C)OC2
    4 | -11 | 3143 | 0 | 0.1 | 9 | -1
25: CC1CC(C)CN(CC(=O)Nc2cc(S(=O)(=O)N3CCOCC3)ccc2N2CCCC2)C1 (stereo not drawn)
    4 | · | 3805 | -14 | 1.2 | 9 | 7
26: O=C(CN(Cc1ccccc1)C(=O)c1csnn1)NCCc1ccccc1
    -3 | 10 | 6073 | -18 | 4.1 | -15 | -3
27: CC(CCCCC=CC(=O)O)OC1OC(C)C(O)CC1O (stereo not drawn)
    1 | · | · | · | 5.4 | 6 | 6
28: O=c1c2[nH]c3ccc(F)cc3c2nc2n1CCS2
    -6 | -8 | 4897 | -19 | 5.6 | 6 | 3
29: O=C(NC1CCN(Cc2ccccc2)CC1)c1cccc(OC(F)F)c1
    7 | 2 | 4851 | -11 | 0.7 | 5 | 4
30: O=C(NCc1ccc(Cl)c(Cl)c1)C1CCCC1
    9 | -4 | 4671 | · | 1.9 | 16 | 11

Compound profiles, from the list above.
O=C(CN(Cc1ccccc1)C(=O)c1csnn1)NCCc1ccccc1 is listed with ugtP null kill: -3; BJeLR viability: 10; Bead autofluor: 6073; PrP UTR inh: -18; RN4220 kill: 4.1; Mtb hypoxia rep: -15; Mtb hypoxia rep growth: -3
O=C(COC(=O)c1cccs1)Nc1ccccc1[N+](=O)[O-] is listed with ugtP null kill: 13; BJeLR viability: -8; Bead autofluor: 4955; PrP UTR inh: -22; RN4220 kill: 5.7; Mtb hypoxia rep: 11; Mtb hypoxia rep growth: 9

Remaining list, next part.
Each structure is followed by: ugtP null kill | BJeLR viability | Bead autofluor | PrP UTR inh | RN4220 kill | Mtb hypoxia rep | Mtb hypoxia rep growth
31: CCN(CCCNC(=O)C1CCN(S(=O)(=O)c2cnc[nH]2)CC1)c1cccc(C)c1
    0 | 0 | 3110 | 4 | 4.0 | 4 | 7
32: Cc1cc(C)c(S(=O)(=O)c2ccccc2)c(OC(=O)c2c(F)cccc2F)n1
    3 | -3 | 2408 | -20 | -0.2 | -1 | 8
33: Cc1nn(-c2ccccc2)nc1C(=O)Oc1cc(C(F)(F)F)nn1-c1ccccc1
    0 | -1 | 6067 | 13 | 1.3 | -7 | -2
34: Cc1cccc(CCNC(=O)c2cc(S(=O)(=O)N3CCOCC3)cn2C)c1
    -5 | -1 | 5788 | -13 | -16 | 3 | 1
35: CCCNS(=O)(=O)c1ccc(OCC(=O)NCCC2=CCCCC2)cc1
    -7 | 0 | 25068* | -8 | 2.9 | 3 | 8
36: O=C(/C(=C(\O)c1ccccc1)c1nc2ccccc2[nH]1)c1ccccc1
    -16 | 2 | 4482 | -17 | 2.7 | -4 | -3
37: Cc1ccc(OCC(=O)N2CCN(C3=NS(=O)(=O)c4ccccc43)CC2)cc1
    8 | -2 | 20779* | -4 | 2.2 | 2 | 2
38: Cc1cc2cc(CN3C(=O)c4ccccc4C3=O)ccc2n1C
    6 | -4 | 2185 | -6 | -3.2 | -5 | 13
39: COCCN(CC(=O)Nc1cccc(C)c1C)C(=O)c1cc2ccccc2cc1OC
    12 | · | 2889 | -16 | 5.3 | -5 | 0
40: C=CCc1cc(OC)ccc1OCCON1C(=O)CCC1=O
    8 | 1 | 2752 | -6 | 3.3 | · | ·
41: Cc1cc(/C=C2/NC(=O)NC2=O)c(C)n1-c1sc2c(c1C#N)CCCC2
    · | 16 | 3615 | 5 | · | · | ·
42: CC1CC(C)CN(C(=O)COC(=O)COc2ccc(C#N)cc2)C1 (stereo not drawn)
    2 | · | 3485 | -38 | 1.5 | 7 | -2
43: CCOc1ccc(S(=O)(=O)NCCC(=O)N2CC=C(c3ccccc3)CC2)cc1
    -4 | · | 6243 | 4 | 5.5 | 12 | 24
44: O=C(CN(c1ccc(F)cc1)S(=O)(=O)c1ccccc1)Nc1ccccc1C(=O)O
    4 | -5 | 4670 | -18 | 0.2 | -5 | -2
45: CCN=C1SC(CC(=O)NC2CCCCC2)C(=O)N1CC (stereo not drawn)
    4 | -10 | 20571* | -14 | 0.4 | -3 | 5

Some of the entries above, reformatted:
cpd	mol	ugtP null kill	BJeLR viability	Bead autofluor	PrP UTR inh	RN4220 kill	Mtb hypoxia rep	Mtb hypoxia rep growth
30	O=C(NCc1ccc(Cl)c(Cl)c1)C1CCCC1	9	-4	4671	·	1.9	16	11
31	CCN(CCCNC(=O)C1CCN(S(=O)(=O)c2cnc[nH]2)CC1)c1cccc(C)c1	0	0	3110	4	4.0	4	7
32	Cc1cc(C)c(S(=O)(=O)c2ccccc2)c(OC(=O)c2c(F)cccc2F)n1	3	-3	2408	-20	-0.2	-1	8
33	Cc1nn(-c2ccccc2)nc1C(=O)Oc1cc(C(F)(F)F)nn1-c1ccccc1	0	-1	6067	13	1.3	-7	-2
34	Cc1cccc(CCNC(=O)c2cc(S(=O)(=O)N3CCOCC3)cn2C)c1	-5	-1	5788	-13	-16	3	1
35	CCCNS(=O)(=O)c1ccc(OCC(=O)NCCC2=CCCCC2)cc1	-7	0	25068*	-8	2.9	3	8
36	O=C(/C(=C(\O)c1ccccc1)c1nc2ccccc2[nH]1)c1ccccc1	-16	2	4482	-17	2.7	-4	-3
37	Cc1ccc(OCC(=O)N2CCN(C3=NS(=O)(=O)c4ccccc43)CC2)cc1	8	-2	20779*	-4	2.2	2	2
38	Cc1cc2cc(CN3C(=O)c4ccccc4C3=O)ccc2n1C	6	-4	2185	-6	-3.2	-5	13
39	COCCN(CC(=O)Nc1cccc(C)c1C)C(=O)c1cc2ccccc2cc1OC	12	·	2889	-16	5.3	-5	0
40	C=CCc1cc(OC)ccc1OCCON1C(=O)CCC1=O	8	1	2752	-6	3.3	·	·
41	Cc1cc(/C=C2/NC(=O)NC2=O)c(C)n1-c1sc2c(c1C#N)CCCC2	·	16	3615	5	·	·	·
42	CC1CC(C)CN(C(=O)COC(=O)COc2ccc(C#N)cc2)C1 (stereo not drawn)	2	·	3485	-38	1.5	7	-2
43	CCOc1ccc(S(=O)(=O)NCCC(=O)N2CC=C(c3ccccc3)CC2)cc1	-4	·	6243	4	5.5	12	24
44	O=C(CN(c1ccc(F)cc1)S(=O)(=O)c1ccccc1)Nc1ccccc1C(=O)O	4	-5	4670	-18	0.2	-5	-2
45	CCN=C1SC(CC(=O)NC2CCCCC2)C(=O)N1CC (stereo not drawn)	4	-10	20571*	-14	0.4	-3	5

Continued:
Each structure is followed by: ugtP null kill | BJeLR viability | Bead autofluor | PrP UTR inh | RN4220 kill | Mtb hypoxia rep | Mtb hypoxia rep growth
46: COc1ccc(NC(=O)CC(c2ccc(F)cc2)c2ccc(OC)cc2)cc1 (stereo not drawn)
    6 | -2 | 2751 | -15 | -2.5 | 0 | -4
47: CNC(=O)COC(=O)/C=C/c1cn(-c2ccccc2)nc1-c1ccc2c(c1)OCCO2
    10 | 17 | 4341 | -6 | 0.3 | 4 | 2
48: COc1ccc(NC(=O)CCCn2c(=O)oc3ccccc32)cc1Cl
    3 | 1 | 2598 | -37 | -1.6 | 1 | 3
49: CC(=NNc1nc2ccccc2nc1C)c1ccccc1O
    3 | · | · | · | 5.8 | 4 | 0
50: COCCNS(=O)(=O)c1cc(C)c(C)cc1C
    -1 | 17 | 2470 | 7 | 5.6 | -2 | 14
51: O=C(NCCCO)c1cc([N+](=O)[O-])cc2c1C=Cc1ccccc1O2
    7 | -9 | 1921 | -4 | 5.8 | 8 | 6
52: S=C1NCN(Cc2cccnc2)CN1Cc1ccccc1
    12 | -3 | 4496 | -14 | 7.6 | 10 | 7
53: CCCCCCOC(=O)CC1CC(C(C)=O)C1(C)C (stereo not drawn)
    10 | · | 2765 | -42 | 5.0 | 10 | 6
54: COc1ccccc1C(=O)NN=C(C)c1ccc(NC(=O)Cc2ccccc2)cc1
    -2 | · | · | · | 3.0 | -3 | 1
55: COc1ccc(F)cc1S(=O)(=O)N1CCC(C(N)=O)CC1
    -1 | -3 | 3837 | -10 | -0.1 | · | ·
56: COc1ccc(Nc2nc(Nc3ccc(OC)cc3)nc(-n3[nH]c(=O)c(C)c3C)n2)cc1
    -14 | 9 | 8507 | 0 | 8.0 | -9 | 4
57: CSc1ccccc1NS(=O)(=O)c1cccc2nonc12
    -6 | -5 | 5487 | -13 | 15 | 17 | 10
58: CC(=O)c1c(C)[nH]c(C(=O)OCCOc2ccccc2)c1C
    17 | 6 | 4781 | -5 | 5.2 | 7 | 12
59: Cc1ccc2nc(NC(=O)c3ccc4c(c3)OCO4)sc2c1
    -13 | 10 | 9980 | -205 | -0.9 | 4 | 7
60: Cc1cccc(C(=O)Nc2ccc(Oc3cnccn3)cc2)c1
    -2 | 0 | 3910 | -19 | -3.7 | 3 | -5
